Cruzain Triton: blocks cruzain activity in presence of Triton detergent; P25779; purified cruzain, Z-FR-AMC fluorescence, 0.01% Triton; Potency, µM, inactives show max response, negative = inhibition, actives largely listed as inhibitors; hit rate 0.43% among 200,000; AID 1478;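 note: plate controls were neutral wells for no effect and buffer without enzyme for full effect; nearly all actives have a fitted effect of over 40% in size; top concentration of the series not given in the record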
Target sequence (P25779 123-467 limits assumed): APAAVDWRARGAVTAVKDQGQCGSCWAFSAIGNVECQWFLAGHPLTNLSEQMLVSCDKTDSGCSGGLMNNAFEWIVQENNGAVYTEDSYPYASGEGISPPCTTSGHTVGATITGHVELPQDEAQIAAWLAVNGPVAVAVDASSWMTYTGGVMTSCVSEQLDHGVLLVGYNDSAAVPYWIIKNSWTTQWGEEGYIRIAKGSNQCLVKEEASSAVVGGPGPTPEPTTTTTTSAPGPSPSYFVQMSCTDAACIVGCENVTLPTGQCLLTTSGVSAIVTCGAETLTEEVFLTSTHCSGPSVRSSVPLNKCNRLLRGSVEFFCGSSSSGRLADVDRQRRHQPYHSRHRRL
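Detergent-containing arm of a paired screen for aggregation-based inhibition: 0.01% Triton X-100 present. Cruzain at 1.5 nM cleaved 2 uM Z-FR-AMC at pH 5.5 with 5 mM DTT; AMC fluorescence gain over 60 s measured activity.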
RE007 growth inh: less growth of the S. pombe RE007 Vpr strain; Potency, µM (highest dose often 92.2 µM), for inactives: at the highest dose activity change, negative = less growth; S. pombe RE007 Vpr strain, BacTiter-Glo ATP luminescence, 24 h; control for the full effect not named in the record; hit rate 0.21% among 360,000; active = well fitted falling curve with a large enough effect; inconclusive = small, poorly fitted or top-dose-only effect; inactive = no such curve, though single readings can be large or run the other way;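 note: % is set by controls: 0 for no effect and ±100 for the full control effect; nearly all actives have a fitted effect of over 50% in size; the assay follows cell death caused by Vpr and the record does not say whether a fall means rescue or toxicity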
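Fission yeast strain RE007, carrying one chromosomally integrated HIV-1 vpr copy, was seeded at OD 0.01 in PMG+AL medium with 23 nL pinned compound. After 24 h at 30 °C and 99% humidity, viability was read by BacTiter-Glo luminescence.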
StopGo reporter: lowers the luciferase signal of an FMDV 2A StopGo reporter; human cells with a luciferase reporter of 2A StopGo recoding; control for the full effect not named in the record; Potency, µM (top dose mostly 57.9 µM), inactives show at the top dose signal change, negative = less light; AID 1159524; hit rate 1.2% among 410,000; active = well fitted falling curve with a large enough effect; inconclusive = small, poorly fitted or top-dose-only effect; inactive = no such curve, though single readings can be large or run the other way; tested in HEK293T cells; note: % is set by controls: 0 for no effect and ±100 for the full control effect; nearly all actives have a fitted effect of over 45% in size; luciferase light after 4 h
MARV entry inh: Marburg virus entry inhibition; AID 540276; Potency, µM (doses to about 37.8 µM), inactives show top-dose activity change, negative = inhibition, most hits filed as inhibitors; Marburg virus pseudotyped entry inhibition, cell reporter; control for the full effect not named in the record; about a third of the inactives were read at about 46 µM; hit rate 1.8% among 300,000; active = well fitted inhibition curve with a large enough effect; inconclusive = small, poorly fitted or top-dose-only effect, or effect the other way; inactive = flat fitted curve, though single readings scatter; tested in HEK293 cells; about a fifth of its hits are not listed in these tables; note: % is set by controls: 0 for no effect and ±100 for the full control effect; luciferase read-out
Cruzain inh noDet: inhibitors of Trypanosoma cruzi cruzain without detergent | P25779 | purified cruzain, Z-FR-AMC fluorescence, no detergent | Potency, µM, for the others: max response, negative = inhibition, hits mostly inhibitors | hit rate 2.3% among 200,000 | AID 1476;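 note: plate controls were enzyme without inhibitor for no effect and buffer without enzyme for full effect; nearly all actives have a fitted effect of over 40% in size; top concentration of the series not given in the record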
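Purified cruzain at 1.5 nM, pre-incubated 15 min with compound at room temperature in 100 mM sodium acetate pH 5.5, 5 mM DTT, 0.00005% Triton X-100. Reaction started with 2 uM Z-FR-AMC; AMC fluorescence increase over 60 s gives rate.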
NS1 function inh: influenza NS1 inhibition; S. cerevisiae slowed by influenza A NS1, growth recovery by OD600; Potency, µM (series often up to 46.1 µM), for the others: at the top dose activity, positive = more growth; hit rate 0.4% among 270,000; active means well fitted rising curve with a large enough effect; inconclusive means small, poorly fitted or top-dose-only effect; inactive means no such curve, though single readings can be large or run the other way; note: nearly all actives have a fitted effect of over 50% in size
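Recovery from NS1-induced slow growth read by OD600 in budding yeast switched to galactose assay medium (pH 6.0, -URA) at 1:100 dilution. Compound 23 nl per well; the matching strain lacking NS1 serves as control.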
LASV entry inh: inhibitors of Lassa virus binding or cell entry; AID 540256; hit rate 1.2% among 300,000; Potency, µM (doses to about 37.9 µM), for inactives: at the top dose activity change, negative = inhibition, actives largely listed as inhibitors; Lassa virus pseudotype entry inhibition, cell reporter; control for the full effect not named in the record; active means well fitted inhibition curve with a large enough effect; inconclusive means small, poorly fitted or top-dose-only effect, or effect the other way; inactive means flat fitted curve, though single readings scatter; tested in HEK293 cells; note: % is set by controls: 0 for no effect and ±100 for the full control effect; nearly all actives have a fitted effect of over 50% in size; luciferase read-out
SARS PLpro yeast: inhibitors of SARS-CoV papain-like protease in yeast. S. cerevisiae expressing SARS-CoV PLpro, growth rescue; control for the full effect not named in the record. Potency, µM (titrated, usually from 32.9 µM), for the others: top-dose activity, positive = growth rescue. hit rate 0.19% among 330,000; active means well fitted rising curve with a large enough effect; inconclusive means small, poorly fitted or top-dose-only effect; inactive means no such curve, though single readings can be large or run the other way; note: 0% is about no effect; nearly all actives have a fitted effect of over 55% in size; growth read by luminescence after 48 h
Active calls of the source: *; u = inconclusive; x = not tested or not shown; ! = repeats disagree; [ ] = remark or other dose. Unless noted, calls come from the whole dose curve; as a rule, active = well fitted curve in the direction sought with a large enough effect; inconclusive = small, poorly fitted or top-dose-only effect, or another doubt; inactive = no such curve, though single readings can be large; an effect the other way counts as inactive or inconclusive. Potency is the fitted concentration of half-maximal effect. No enrichment for hits. Share with any hit: about 4.6%.

SMILES	Cruzain Triton	NS1 function inh	SARS PLpro yeast	MARV entry inh	RE007 growth inh	StopGo reporter	LASV entry inh	Cruzain inh noDet
Cc1cccc(NC(=O)CSc2nc(-c3cccs3)nc3cc(=O)[nH]n23)c1	-1.8%	x	x	x	x	-5%	-4%[46.1 µM]	u
COc1ccc(S(=O)(=O)N2CCN(C3CCN(Cc4ccccc4)CC3)CC2)cc1	2.4%	5%	-1%	u	-6%	-25%	5%	-4%
Cc1ccc(N2C(=O)C3C(c4ccccc4)N4CCCN4C3(C)C2=O)cc1 (stereo not drawn)	-2.2%	17%	3%	26%	0%	-8%	u	-5%
CC1CCN(C(=O)c2ccc(COc3ccccc3Cl)o2)CC1	-7.2%	-104%	-14%	9%	-1%	14%	-14%	25%
Cc1cc(Nc2ccc(Cl)cc2)nc(NCc2ccccc2)n1	-12%	-25%	-10%	u	16%	32µM*	u	22%
COC(=O)c1cc(NC(=O)CN(c2ccc3c(c2)OCO3)S(C)(=O)=O)ccc1Cl	-1.5%	-14%	0%	-15%	-25%	-12%	-8%	2%
COc1ccccc1NC(=O)C1CCCN(S(=O)(=O)c2ccc3[nH]c(=O)ccc3c2)C1 (stereo not drawn)	x	16%	-1%	x	-2%	u	x	x
COc1ccc(CCN2C(=O)N(c3cccc(C)c3)C(=O)C2CC(=O)Nc2ccccc2)cc1OC (stereo not drawn)	-2.5%	x	x	-28%[46.1 µM]	x	-7%	-22%[46.1 µM]	u
COc1ccc(-c2nnc(N(C)C(=O)c3ccco3)s2)cc1OC	x	-2%	3%	6%[46.1 µM]	11%	21%	10%[46.1 µM]	x
COc1ccc(NC(=O)CCN2C(=O)c3ccncc3C2=O)cc1OC	x	1%	1%	x	-6%	-14%	x	x
COc1ccc(/C=C(/CC(=O)Nc2ccc(C)cc2)c2nc3ccccc3s2)cc1	-9.5%	17%	0%	-18%	-11%	43%[activator]	0%	32µM*
COC(=O)c1ccc(SC2CCCCC2)c([N+](=O)[O-])c1	-6.0%	-84%	-16%	4%	-22%	0%	-31%	-7%
O=P(Nc1ccccc1)(Nc1ccccc1)Oc1ccccc1	-4.8%	4%	11%	-2%	14%	43%[activator]	6%	0%
Fc1cccc(Cl)c1Cn1nnc2c(NCc3ccncc3)ncnc21	x	5%	1%	-25%[46.1 µM]	14%	u	u	x
O=S(=O)(c1ccc(Cl)cc1)N1CCCCCC1	x	1%	-5%	x	-8%	34%[activator]	x	x
CCOC(=O)C1CCN(C(=O)CSc2ccc(Br)cc2)CC1	x	-10%	0%	u	0%	19%	5%[46.1 µM]	x
COc1ccc(CCNC(=S)N2CCC(C(=O)c3ccc(F)cc3)CC2)cc1OC	x	x	-1%	u	-7%	u	u	x
C=CCn1c(N)c(C(=O)OCC(C)C)c2nc3ccccc3nc21	-15%	-53%	1%	23%	-11%	-20%	-5%	1%
O=c1c2ccccc2cnn1Cc1cccc(Br)c1	x	-6%	-1%	6%[46.1 µM]	-16%	11%	26%[46.1 µM]	x
Cc1c(Cl)cccc1N(CC(=O)NC(C)c1ccccc1)S(C)(=O)=O (stereo not drawn)	x	23%	1%	u	-13%	-19%	-6%	x
CC(C)(C)CC(=O)Nc1nnc(SCC(=O)NC2CCCCC2)s1	x	13%	8%	17%[46.1 µM]	-14%	-16%	-4%	x
[N-]=[N+]=NCc1cn2cccnc2n1	x	x	0%	16%[46.1 µM]	57%	-6%	11%[46.1 µM]	x
O=C(CC1(O)C(=O)Nc2ccccc21)c1ccc(-n2cccc2)cc1 (stereo not drawn)	-9.9%	-13%	-3%	-3%[46.1 µM]	-2%	14%	-23%	-21%
Cc1ccc(C)c(N2CCN(C(=O)C3CCCCN3S(=O)(=O)c3ccc(F)cc3)CC2)c1 (stereo not drawn)	2.9%	5%	-16%	10µM*!	-8%	32µM*	-25%	2%
Nc1ccc(N2CCN(c3ncc(C(F)(F)F)cc3Cl)CC2)c(C(F)(F)F)c1	-5.2%	x	x	6%[46.1 µM]	x	u	-1%[46.1 µM]	-15%
CCC1CN(C(=O)Nc2cccc3c2CCCC3)c2cc(Cl)ccc2O1 (stereo not drawn)	-6.6%	x	x	x	x	-23%	-6%[46.1 µM]	6%
CC(C)c1ccc2c(c1)C1(NN=C(c3ccccc3)S1)C(=O)N2 (stereo not drawn)	-6.4%	-9%	-80%	u	-14%	-20%	u	-5%
Cc1cc(C)c(NC(=O)COC(=O)CCc2ccc(S(=O)(=O)N3CCCCC3)cc2)c(C)c1	-6.4%	6%	17%	19%[46.1 µM]	10%	0%	14%[46.1 µM]	-5%
Cn1cc(C(=O)NCCN2CCN(c3cccc(Cl)c3)CC2)c2c3ccccc3n(C)c2c1=O	-4.5%	-42%	4%	3%	-4%	-18%	-2%	u
N#Cc1c(-c2ccc(Cl)cc2)n(O)c2ccccc12	x	x	x	8.9µM*	u	0%	13µM*	x
CN(C)S(=O)(=O)c1cc(NC(=O)CNCCN2CCOCC2)ccc1Cl	x	-1%	1%	x	7%	-2%	x	x
CC(C)COc1ccc(CN=C(N)N=C(N)N)cc1Cl	-1.7%	-9%	-6%	x	2%	u	x	8%
O=C(O)C1(P(=O)(c2ccc(Cl)cc2)c2ccc(Cl)cc2)CCCC1	x	7%	1%	x	-8%	-13%	x	x
Cc1[nH]nc(SCC(=O)N2CCC(C)CC2)c1[N+](=O)[O-]	-1.4%	4%	28%	-2%[46.1 µM]	5%	63%[activator]	12%	-20%
C=CCSc1nc2c(c(=O)[nH]c(=O)n2C)n1Cc1ccc(C)cc1	14%	5%	20%	x	-9%	-22%	x	u
Cc1ccc(NC(=S)N(CCCN2CCCC2)Cc2cccn2Cc2ccc(Cl)cc2)cc1C	x	x	-4%	u	-3%	u	u	x
CC(O)c1cccc(NC(=O)C2CCCCC2)c1 (stereo not drawn)	x	3%	0%	x	2%	10%	x	x
Cc1cc(=O)oc2c(C)c(OCC(=O)N3CCN(c4ccccc4)CC3)ccc12	x	2%	19%	-18%[46.1 µM]	12%	-20%	u	x
COC(=O)c1ccc(NC(=O)CN2C(=O)CSC2=O)cc1	2.6%	-1%	6%	u	4%	0%	5%	-10%
Nc1ccc(CN2CCCCCC2)cc1	-0.6%	5%	-9%	30%	4%	8%	19%	-3%
COC(=O)N1[C@H](C)C=C[C@]1(Cc1ccccc1)C(=O)OC	1.5%	x	x	x	-1%	-2%	x	-10%
CCOC(=O)c1c(NC(=O)CSc2nnc(Cc3ccccc3)o2)sc(C(C)=O)c1C	0.6%	10%	3%	-22%	-11%	u	-28%	6%
C=CCn1c(SCC(=O)NCC)nnc1-c1cc2c(s1)CCC(CC)C2 (stereo not drawn)	-4.0%	-51%	9%	0%	11%	-3%	0%	u
COC(=O)C1=C(N)N(c2ccc(F)cc2)C2=C(C(=O)CCC2)C1c1ccc2c(c1)OCO2 (stereo not drawn)	-4.5%	-5%	1%	7%	-17%	-16%	u	0%
N/C(=N\OC(=O)COc1ccc2ccccc2c1Br)c1ccccn1	x	-2%	-1%	x	-11%	60%[activator]	x	x
CCOc1ccc(NC(=O)c2c(NCc3cccs3)sc3c2CCCCC3)cc1	-12%	x	x	x	x	46%[activator]	-13%[46.1 µM]	-21%
Cc1cc(/C=C(\C#N)C(=O)OCC(=O)NC(=O)NC(C)(C)C)c(C)n1CCC(C)C	-14%	-22%	-5%	u	-16%	-21%	-19%	-8%
FC(F)(F)c1nc(=S)c2ccccc2[nH]1	x	6%	-1%	x	4%	-14%	x	x
NNC(=O)COc1cccc(C(F)(F)F)c1	x	x	0%	-4%[46.1 µM]	12%	-16%	24%	x
O=C(NC1CCCCCC1)C1CCN(C(=O)N2CCOc3ccccc32)CC1	-2.7%	x	x	x	x	-16%	3%[46.1 µM]	-4%

Next section.
SMILES	Cruzain Triton	NS1 function inh	SARS PLpro yeast	MARV entry inh	RE007 growth inh	StopGo reporter	LASV entry inh	Cruzain inh noDet
O=C(Nc1cccnc1)c1cc(S(=O)(=O)N2CCOCC2)ccc1Br	x	0%	5%	-17%	-6%	-21%	0%	x
Cc1cccc(Nc2nc(-c3ccccn3)cs2)n1	-8.6%	-54%	-20%	u	u	4%	u	14%
OCCC1CN(Cc2cc3c(cc2Cl)OCO3)CCN1C1CCCCC1 (stereo not drawn)	x	-2%	0%	u	3%	6%	-14%	x
Cc1cccc(NC(=O)N2CCc3c(sc4c3CCCC4)C2c2ccc(F)cc2)c1 (stereo not drawn)	-1.6%	x	x	x	x	-11%	-11%[46.1 µM]	u
O=C1CC(=O)N(Cc2ccccc2)C(=O)N1	x	x	x	10%	-14%	-7%	13%[46.1 µM]	x
Cc1ccccc1CN1CCC(CNc2ncnc3onc(-c4ccc(Cl)cc4)c23)CC1	0.5%	x	x	x	x	u	0%[46.1 µM]	-14%
O=C(CC1S/C(=N/N=C/c2cccs2)NC1=O)Nc1ccc(Cl)cc1 (stereo not drawn)	-1.9%	15%	-4%	-6%	3%	1%	-3%	-27%
CCOc1ccc(C2C(C(N)=O)=C(C)Nc3ncnn32)cc1OC (stereo not drawn)	x	-1%	-1%	x	3%	-14%	x	x
Cc1cccc(Oc2nc(-c3ccccc3)cc(C)c2S(C)(=O)=O)c1C	-0.2%	4%	-3%	u	4%	u	u	8%
COc1cccc(NS(=O)(=O)c2ccc3c(c2)n(C)c(=O)c(=O)n3C)c1	-4.7%	-3%	-1%	-15%	-6%	21%	8%	1%
CCOC(=O)c1c(NC(=O)/C=C/c2ccc(C)cc2)sc(C(C)=O)c1C	-0.3%	x	x	x	x	-18%	u	-11%
CCOC(=O)c1cc(OC(=O)c2ccc(OC)c(OC)c2)n(-c2ccccc2)n1	-5.7%	x	x	14%[46.1 µM]	x	0%	3%[46.1 µM]	1%
COc1ccc(CN2CCc3c([nH]c4ccccc34)C2)c(OC)c1C	x	-23%	1%	u	-10%	u	-15%	x
O=C(COC(=O)Cc1ccccc1)Nc1ncc(Cl)cc1Cl	0.3%	-1%	-13%	0%[46.1 µM]	-9%	-18%	6%	0%
CCOC(=O)Cc1ncccc1C(=O)Nc1ccc(OC(F)(F)F)cc1	x	x	3%	u	-3%	-20%	-1%	x

From PubChem BioAssay
